Screening results: PubChem BioAssay, several laboratories
Vif TR-FRET: inhibitors of Vif binding to APOBEC3G peptide, primary screen, biochemical, TR-FRET, GST-Vif 1-94, biotin-A3G peptide, dose response retest (AID 1117319). TR-FRET GST-Vif / biotin-A3G peptide binding; higher % means a stronger effect; test concentration not given here; strong numbers were not always called active. inhibition, %; hits with a dose series show IC50 in µM. 260,000 tested, 0.57% active;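 active = above the screen mean plus three standard deviations and confirmed in dose response; inconclusive = results disagree or hit not tested in dose response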;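 also: Vif residues 1-94 fused to GST binding biotinylated APOBEC3G peptide 110-148; 0% = full assay without inhibitor and 100% = GST in place of GST-Vif; retest series ran down from 100 µM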
HNF4A DNA FP: change in binding of human HNF4 alpha to DNA. P41235. HNF4a-FITC DNA binding, fluorescence polarization, 1 h. activity change, % at 10 µM. 360,000 tested, 0.3% active; in the data active = activity change above about 30%, passing the limit was not always enough;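 also: controls were the assay level and a saturating level of protein; the project sought stronger binding though the title names inhibitors; some compounds called inactive have numbers as strong as hits; positive values seem to mean higher polarization but the record does not say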
MLL AF4-AF9 inh: MLL-AF4/AF9 protein interaction inhibition; AlphaScreen, biotin-AF4 peptide binding to FLAG-AF9; inhibition, % at 10 µM; 350,000 tested, 0.47% active; AID 651704;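 active = every replicate reaching a set inhibition limit, whatever the replicate mean, cut at about 25% in these data; inconclusive = mean inhibition reaches that limit but some replicates miss it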;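 also: 0% = plate neutral control median and 100% = total signal loss; the record names both 10 and 1 µM as test concentration; the first replicate is given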
Target sequence (P42568 whole entry, looked up): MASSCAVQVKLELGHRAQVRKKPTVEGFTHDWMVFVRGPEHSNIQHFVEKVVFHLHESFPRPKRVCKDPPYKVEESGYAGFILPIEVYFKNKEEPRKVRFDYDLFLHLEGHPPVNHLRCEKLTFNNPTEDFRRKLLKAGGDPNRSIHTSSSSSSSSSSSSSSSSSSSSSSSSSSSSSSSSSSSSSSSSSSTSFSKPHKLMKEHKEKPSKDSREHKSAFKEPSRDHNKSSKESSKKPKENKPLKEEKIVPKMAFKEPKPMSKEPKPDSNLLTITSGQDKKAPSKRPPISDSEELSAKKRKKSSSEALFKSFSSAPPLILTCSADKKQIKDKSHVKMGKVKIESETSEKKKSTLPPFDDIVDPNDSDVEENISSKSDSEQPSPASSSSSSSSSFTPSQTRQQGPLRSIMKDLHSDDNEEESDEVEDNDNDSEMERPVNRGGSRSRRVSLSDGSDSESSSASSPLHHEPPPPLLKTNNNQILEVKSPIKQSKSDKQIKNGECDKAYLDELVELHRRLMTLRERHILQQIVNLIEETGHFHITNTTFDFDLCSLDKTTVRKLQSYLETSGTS
UCH37 DUB inh: human UCH37 deubiquitinating enzyme inhibition; inhibition, % (no concentration beside the values); AID 588478; 330,000 tested, 0.33% active; purified proteasome/UCH37, Ub-AMC cleavage fluorescence;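 active = mean of two replicates above 20%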;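 also: 0% = compound-free wells with enzyme and 100% = wells lacking proteasome; stock transfer was 100 nL into about 20 µL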
Target sequence (Q9Y5K5 whole entry, looked up): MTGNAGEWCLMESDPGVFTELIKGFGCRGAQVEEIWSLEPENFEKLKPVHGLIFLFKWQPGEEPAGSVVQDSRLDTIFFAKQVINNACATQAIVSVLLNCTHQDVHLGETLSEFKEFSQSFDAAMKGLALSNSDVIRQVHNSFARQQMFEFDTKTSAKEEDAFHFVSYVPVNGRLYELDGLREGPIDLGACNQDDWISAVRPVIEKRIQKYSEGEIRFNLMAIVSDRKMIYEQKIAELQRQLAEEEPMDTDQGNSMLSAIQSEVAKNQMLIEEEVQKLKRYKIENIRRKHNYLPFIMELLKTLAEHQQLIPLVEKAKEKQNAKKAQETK
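Signal – fluorescence, ex 355 nm, em 460 nm · System – Proteasome-bound UCH37 · Input – 0.15 nM proteasome as dispensed · Timing – 30 min preincubation with enzyme, 25 min cleavage at room temperature · Read-out basis – percent inhibition of cleavage signal versus uninhibited and no-proteasome wells · Medium – Tris-HCl pH 7.4 with ATP-MgCl2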
RanGTP-Imp inh: disruptors of Ran-importin-beta complex formation – biochemical, FRET, CFP-Ran, YFP-importin-beta, homogeneous, primary screen; 300,000 tested, 1.1% active; cell-free CFP-Ran/YFP-importin-beta FRET ratio; AID 2216; inhibition, % (test concentration not listed);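 active = most replicates above 15%; inconclusive = exactly half above 15%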;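 also: 0% = DMSO wells and 100% = Ran loaded with GDP instead of GTP; wells of about 40 µL received 100 nL stock; the first replicate is given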
FGF22 binding: shifts melting point of recombinant human FGF22; 340,000 tested, 1.5% active; recombinant FGF22 thermal shift, SYPRO orange fluorescence; percent of sucrose octasulfate shift, DMSO zero; Q9HCT0; calls only at 9.99 µM;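 active = melting point raised past a set limit in the mean and every replicate; inconclusive = no clear call; three in four hits are not shown here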
Target sequence (Q9HCT0 whole entry, looked up): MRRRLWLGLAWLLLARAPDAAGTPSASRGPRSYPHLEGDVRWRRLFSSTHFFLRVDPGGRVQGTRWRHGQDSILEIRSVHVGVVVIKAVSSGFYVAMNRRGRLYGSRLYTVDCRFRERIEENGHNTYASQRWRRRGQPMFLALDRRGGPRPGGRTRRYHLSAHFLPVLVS
Ecoli growth: inhibitors of Escherichia coli growth; OD600, 23 h; hits give low values; OD600 absorbance (concentration not given with the values); 330,000 tested, 0.21% active; AID 1053175;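 active = OD600 absorbance below the run mean of sample wells minus 3.6 SD, in any replicate, cut at about 0.56 in these data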;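 also: stock transfer was 300 nL into about 60 µL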
An asterisk follows results filed as active; i = inactive; ? = inconclusive; / = no result given; & = joins results of further samples. This is a subset (hit frequency here may not be typical).

SMILES	Vif TR-FRET	HNF4A DNA FP	MLL AF4-AF9 inh	UCH37 DUB inh	RanGTP-Imp inh	FGF22 binding	Ecoli growth
CC(=O)N1CCN(CC(=O)Nc2ccc(C#N)c(Cl)c2)CC1	?	1.8	-1.5	1.0	/	i	0.645
O=c1[nH]c(=S)[nH]c(O)c1N=Nc1ccc(S(=O)(=O)N2CCOCC2)cc1	/	3.1	3.2	11.6	-3.6	i	0.688
c1ccc([C@@H]2CO2)cc1	/	-3.5	/	2.1	8.7	/	/
c1cc2c(cc1NC1=NCCO1)CCCC2	-3.4%	-2.5	-1.2	/	/	i	/
Cc1cccc(CSc2nc3c(cc2C#N)CN(C)CC3)c1	27.1%	1.1	-9.4	0.9	-0.1	/	0.672
COc1ccc(CN2CCN(Cc3ccccc3F)CC2)cc1	0.2%	0.5	1.6	2.9	0.2	i	0.656
N#CC(C#N)=NNc1ccc(-n2ccc(C(F)(F)F)n2)cc1	1.1%	-0.2	8.6	/	-1.9	i	/
Cc1ccc(C[n+]2c(-c3ccc(C)cc3)cc(-c3ccc(C)cc3)cc2-c2ccc(C)cc2)cc1	/	2.2	/	-19.9	-0.2	/	0.413*
CC(C)(C)c1ccc(OC(=O)N2CCCCC2)cc1	1.0%	-1.9	-0.9	-0.8	12.9	i	0.657
CCC1(c2ccccc2)C(=O)N(C)C(=O)N(C)C1=O	-7.9%	-5.7	/	2.6	-0.4	/	0.689
COC(=O)C(C)Oc1cc(C)cc2oc(=O)c3c(c12)CCCC3 (stereo unspecified)	-2.6%	0.0	/	-40.4	-0.4	/	0.711
CCCOc1ccc(N2C(=O)CC(N3CC=C(c4ccccc4)CC3)C2=O)cc1 (stereo unspecified)	-3.5%	-0.4	-2.1	4.0	-2.3	i	0.643
C[C@@H]1CC2C3CC=C4C[C@@H](O)CC[C@]4(C)C3CC[C@]2(C)[C@H]1O (stereo partly specified)	3.9%	3.9	-2.9	-0.8	/	i	0.654
CC(=O)OC1(c2ccccc2)CC(C(C)(C)C)CN(C(C)(C)C)C1 (stereo unspecified)	5.5%	-2.6	/	1.2	-0.1	/	0.707
COc1cccc(CN2CCCC(C(=O)c3ccccc3SC)C2)c1O (stereo unspecified)	-6.5%	1.3	10.7	3.9	?	i	0.731
CCC(=O)c1cc(F)c(N2CCN(CC)CC2)cc1C	-2.7%	1.5	/	1.9	3.3	/	0.744
FC(F)(F)C1=NC(C(F)(F)F)=NP(N2CCOCC2)(N2CCOCC2)=N1	-0.2%	-0.8	/	2.8	-2.0	/	0.702
Cc1nc2ccccc2c(=O)n1/N=C/c1cc(Br)cc(Br)c1O	/	13.0	3.7	/	-24.4	i	/
CCOc1ccc(CN2CCN(C(=O)Cc3ccccc3)CC2)cc1	/	1.1	-2.0	2.1	-1.4	i	0.609
CSc1ncc(Cl)c(C(=O)O)n1 (tested in a mixture with another compound)	2.8%	-1.5	/	-0.2	-2.2	/	0.817
C[C@]12CC[C@H](O)CC1=C([N+](=O)[O-])CC1C2CC[C@@]2(C)C1CC[C@@H]2O (stereo partly specified)	-7.7%	1.5	-1.4	4.5	/	i	0.667
Cc1cccc(N2C(=O)NC(=O)/C(=C/c3ccc(N4CCOCC4)cc3)C2=O)c1	19.5%	-2.8	-0.8	1.0	9.3	i	0.701
Cc1ccc(C(C)C)c(OCC#CCN2CCCC2)c1	14.9%	1.9	0.8	2.8	3.8	i	0.632
c1ccc2c(CN3CCCCCC3)c[nH]c2c1	?	1.5	-2.5	6.2	-3.4	i	0.703
CCN(CC)C(=O)[C@H]1C[C@H](CC(=O)NCCCN(C)C)C(=O)N2CCc3c([nH]c4ccc(Cl)cc34)[C@]12C	3.4%	2.4	3.8	3.3	/	i	0.677
C/C(=N\Nc1ccccc1)c1c(O)n(-c2ccccc2)c(=O)[nH]c1=O	31.4%	-1.2	-0.3	2.7	-0.9	i	0.64
CN(C)CC(C(=O)Cc1ccccc1)c1ccccc1 (stereo unspecified)	-0.8%	1.9	-11.7	1.9	/	i	0.648
COc1ccc(-c2nn(CCC#N)cc2C(=O)NCc2ccccc2)cc1	-3.1%	-1.4	-1.5	4.5	2.0	i	0.692
C=CC12CN(C)[C@@H]3C4CO[C@H](C[C@H]41)[C@]1(C(=O)Nc4ccccc41)[C@@H]32 (stereo partly specified)	/	1.3	-1.1	1.4	-3.5	i	0.717
CCOC(=O)C1(c2ccccc2)CCN(CCC(=O)Nc2ccc(OC)cc2)CC1	-10.7%	3.4	2.6	/	/	i	/
O=C(CSC1c2ccccc2-c2ccccc21)N/N=C/c1ccccc1O	31.6%	-3.9	/	/	4.6	/	/
CC(C)Cc1nnc(NC(=O)CCC(=O)N2CCN(CCOC(c3ccccc3)c3ccccc3)CC2)s1	/	3.3	/	-1.1	?	/	0.682
NS(=O)(=O)c1ccc(-c2ccc(C=C3C(=O)NC(=O)NC3=O)o2)cc1	/	8.2	0.8	0.8	-2.2	i	0.757
CCCC(C)C1C(C#N)=C(N)Oc2c1c(=O)oc1ccccc21 (stereo unspecified)	11.1%	-3.9	/	4.3	1.3	/	0.775
O=c1[nH]c(=S)n(C2CC2)c(O)c1/C=N/Nc1cccc2ccccc12	?	2.0	/	/	-9.7	/	/
CCOC(=O)C1(CCOc2ccccc2)CCN(Cc2ccc(C)s2)CC1	-1.2%	5.3	5.0	2.0	-3.1	i	0.679
Cc1nc2ccccc2c(=O)n1-c1ccccc1C(F)(F)F	6.2%	-0.4	2.5	1.8	3.2	i	0.627
COc1ccc(CCNCc2ccc(F)cc2)cc1OC	-3.9%	18.0	/	2.2	-1.5	/	0.743
C[N+](C)(C)c1ccccc1	5.2%	-2.6	-5.4	0.0	2.9	i	0.706
CCC(=NCCCN(C)C)c1c(O)n(-c2ccc(OC)cc2)c(=O)[nH]c1=O	18.4%	0.5	/	6.4	5.2	/	0.684
CCOC(=O)C1SC2(C(F)(F)F)CC1(O)c1c(C)cc(C)nc1O2 (stereo unspecified)	-5.3%&0.4%	0.7	/	3.6	3.5	/	0.725
CCC(C)n1c(O)c(/C=N/Nc2ccccc2)c(=O)[nH]c1=S (stereo unspecified)	/	-5.3	7.0	7.0	1.1	i	0.636
COc1cccc(N2CCN(Cc3ccc(Cl)cc3)CC2)c1	1.2%	0.4	11.8	3.0	/	i	0.695
Cn1cccc1/C=C1\C(=O)NC(=O)N(Cc2ccccc2)C1=O	11.2µM*	26.2	3.3	2.2	?	i	0.698
N[C@@H](Cc1ccccc1)C(=O)N1C[C@H]2C[C@@H](C1)c1cccc(=O)n1C2	/	0.3	-7.3	-0.6	1.2	i	0.771
O=C(NCCCn1ccnc1)C(Cl)(Cl)Cl	17.9%	0.7	-1.8	2.4	1.5	i	0.728
C/C(=N\N1CCCCCC1)c1c(O)n(-c2ccccc2C)c(=O)[nH]c1=O	31.9%	-2.1	0.8	5.8	-1.9	i	0.62
c1ccc(CCc2ccc3n2Cc2cnnn2-c2ccccc2-3)cc1	0.8%	2.1	-0.7	/	/	i	/

Brought forward from above: 3 compounds, then new ones.
SMILES	Vif TR-FRET	HNF4A DNA FP	MLL AF4-AF9 inh	UCH37 DUB inh	RanGTP-Imp inh	FGF22 binding	Ecoli growth
O=C(NCCCn1ccnc1)C(Cl)(Cl)Cl	17.9%	0.7	-1.8	2.4	1.5	i	0.728
C/C(=N\N1CCCCCC1)c1c(O)n(-c2ccccc2C)c(=O)[nH]c1=O	31.9%	-2.1	0.8	5.8	-1.9	i	0.62
c1ccc(CCc2ccc3n2Cc2cnnn2-c2ccccc2-3)cc1	0.8%	2.1	-0.7	/	/	i	/
O=c1c2ccccc2nc(-c2ccccc2)n1-c1ccc(O)cc1	-1.4%	2.0	1.4	0.9	8.5	i	0.659
NP(=O)(OCC(F)(F)F)Oc1cccc2ccccc12 (stereo unspecified)	/	-2.5	-1.2	-0.2	-0.6	i	0.676
CC(C)C12CN3CC(C(C)C)(CN(C1)C3c1cccnc1)C2=O (stereo unspecified)	-1.0%	-2.5	/	3.9	6.1	/	0.69
CCOC(=O)CNC(=O)N1Cc2cc(-c3cccc(F)c3)ccc2-n2nncc2C1	/	0.6	-3.0	/	/	i	/
O=c1cccc2n1CC1CC2CN(c2nc(N3CCCCC3)nc(N3CCCCC3)n2)C1 (stereo unspecified)	-4.5%	0.4	-4.7	/	-0.3	i	/
COC(=O)C1=C(c2ccc(OC)c(OC)c2)C[C@@H]2CC[C@H]1N2C(=O)NCCCOC(C)C	/	0.0	0.6	0.0	/	i	/
O=C1N=c2ccccc2=C/C1=C\c1c(O)[nH]c(=S)[nH]c1=O	/	4.3	-22.5	-3.1	-3.9	i	0.614
O=C(Nc1cccc(C(F)(F)F)c1)c1cccn(Cc2ccc3c(c2)OC(F)(F)O3)c1=O	3.3%	-1.6	/	6.1	-3.1	/	0.707
CN1C2CCC1CC(OC(=O)c1cccc(O)c1)C2 (stereo unspecified)	/	-1.9	-1.3	/	/	i	/
C=CCn1c(O)c(C(C)=NCc2cc(OC)cc(OC)c2)c(=O)[nH]c1=O	-7.0%	-1.1	/	1.5	-4.9	/	0.73
CN1C[C@@H]2C[C@@H](c3cccn3-c3ccccn3)N3CCC[C@@]23C1=O	6.1%	-3.4	-0.1	2.1	3.4	/	0.732
COc1cccc(NC2=NCCCS2)c1	/	0.7	-1.3	0.2	-0.1	i	0.654
COc1ccc2c(c1)C(NC(C)=O)CCc1cc(OC)c(OC)c(OC)c1-2 (stereo unspecified)	3.6%	-1.5	-0.4	/	/	i	/
Fc1ccc(CNCCc2c[nH]c3ccccc23)cc1	/	4.6	0.0	2.3	-1.8	i	0.68
CC(C)CNC(=O)c1c(N)n(Cc2ccc3c(c2)OCO3)c2nc3ccccc3nc12	19.3%	3.1	/	-225.0	1.2	/	0.742
COc1ccc(-c2cc(=O)oc3c(C)c(OC(C)C(=O)N4C[C@H]5C[C@@H](C4)c4cccc(=O)n4C5)ccc23)cc1 (stereo partly specified)	/	4.3	-7.4	-1.2	1.5	i	0.755
COC(=O)C1=C(c2ccc(OC)c(OC)c2)C[C@@H]2CC[C@H]1N2C(=O)N1CCC(C)CC1	/	0.0	1.3	5.9	/	i	/
Cn1c(=O)cc(OCCCC(=O)N2CCC3(CC2)OCCO3)c2ccccc21	2.6%	0.0	/	3.8	-2.9	/	0.719
COC(=O)C1=C(c2ccc(S(C)(=O)=O)cc2)C[C@@H]2CC[C@H]1N2C(=O)NCC1CC1	/	0.1	-15.1	0.4	2.9	i	/
CCN(CC)C(=O)c1ccc(NC(=O)COc2ccc(-c3nn(C)c(=O)c4ccccc34)cc2)cc1	/	-2.0	4.3	3.8	3.9	i	0.703
O=C1C=CC(=O)C=C1	/	-0.7	-3.0	5.1	/	i	/
Cc1cc(=O)[nH]c(SCc2nc3ccccc3c(=O)n2-c2ccccc2C)n1	5.9%	-1.5	0.5	2.3	-5.6	i	0.628
CC1CCC(C)(NS(=O)(=O)OCC(Cl)(Cl)Cl)CC1 (stereo unspecified)	/	-4.9	-3.6	-2.6	2.5	i	0.649
O=c1[nH]c2ccccc2n1C1CCN(C(c2ccccc2OC(F)(F)F)c2nnnn2Cc2ccccc2)CC1 (stereo unspecified)	/	0.6	-0.9	/	/	i	/
CN1CCN(c2nc3ccccn3c(=O)c2C=C2C(=O)N(C)C(=O)N(C)C2=O)CC1	/	2.8	/	4.7	?	/	0.722
COc1nc2ccccc2nc1N1CC1	/	1.6	-8.0	/	/	i	/
CC1(C)C2([N+](=O)[O-])CN3CC1([N+](=O)[O-])CN(C2)C3c1ccccn1 (stereo unspecified)	-4.0%	3.5	1.4	0.7	-1.0	i	0.723
